# A647 fluor = compound fluoresces in the A647 spectral region. Compound fluorescence, A647 channel (570/671 nm), Tris buffer. max dye-equivalent concentration, M. 59,000 tested, under 10 active. AID 592; active means above 1 µM dye equivalent; inconclusive means 0.1 to 1 µM; inactive means 0.1 µM or less;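 also: values scaled relative to a standard on each plate; highest value over a series up to 38 µM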
#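 Buffer was dispensed, compounds and Alexa 647 standards were pin-transferred, and plates sat 15 min at room temperature. Intensity at 570/671 nm was then converted to dye-equivalent concentration using the plate's A647 standard curve.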
# AID923 = qHTS Assay for Allosteric/Competitive Inhibitors of Caspase-1: Spectroscopic Profiling in AFC Spectral Region; compound fluorescence, AFC spectral region (405/520 nm); almost no hit is shown here; Potency, µM (doses to about 57.5 µM), for the others: at the top dose fluorescence increase, actives largely listed as activators; actives 1.1% (n = 75,000); AID 923, 2007; active = well fitted activation curve with a large enough effect; inconclusive = small, poorly fitted or top-dose-only effect;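 also: potency is read from the fitted curve at half-maximal effect; 0% is about no effect; scaled to a free AFC standard on each plate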
#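 Titrations up to 57 uM read every 20 sec for 3 min (405/520 nm) with 50 nM caspase 1 and 5 uM Ac-WEHD-AFC, pH 7.5 HEPES buffer. Fluorescence-vs-time intercept gave baseline, scaled against on-plate AFC standard.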
# Resorufin fluor = compounds fluorescent in resorufin spectral region. Compound fluorescence, resorufin region 547/598 nm, buffer; active compounds read high. max dye-equivalent concentration, M. actives 0.04% (n = 59,000). AID 588; active = above 10 nM dye equivalent; inconclusive = 1 to 10 nM; inactive = 1 nM or less; a few of its hits are not listed in these tables; also: highest value over a series up to 38 µM
#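 Compounds in 100 mM Tris buffer, pH 8.0, incubated 15 min at room temperature, then read with 547 nm excitation and 598 nm emission filters. Fluorescence was converted to dye-equivalent concentration using an on-plate six-point resorufin standard curve.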
# TSHR ag = agonists of human thyroid stimulating hormone receptor; Potency, µM (doses to about 57.1 µM), inactives show at the highest dose activation, hits mostly activators; AID 926; actives 0.48% (n = 73,000); P16473; HEK293-CNG-TSHR cells (CNG channel as cAMP sensor), membrane potential dye, cAMP; active = well fitted activation curve of enough size with the parental cells flat; inconclusive = any curve in the parental cells; inactive = parental cells flat and receptor cells flat or falling; also: potency is read from the fitted curve at half-maximal effect; % of control where 0% means no effect; weak receptor curves with flat parental cells got no call and are not listed
# Target sequence (P16473 whole entry, looked up): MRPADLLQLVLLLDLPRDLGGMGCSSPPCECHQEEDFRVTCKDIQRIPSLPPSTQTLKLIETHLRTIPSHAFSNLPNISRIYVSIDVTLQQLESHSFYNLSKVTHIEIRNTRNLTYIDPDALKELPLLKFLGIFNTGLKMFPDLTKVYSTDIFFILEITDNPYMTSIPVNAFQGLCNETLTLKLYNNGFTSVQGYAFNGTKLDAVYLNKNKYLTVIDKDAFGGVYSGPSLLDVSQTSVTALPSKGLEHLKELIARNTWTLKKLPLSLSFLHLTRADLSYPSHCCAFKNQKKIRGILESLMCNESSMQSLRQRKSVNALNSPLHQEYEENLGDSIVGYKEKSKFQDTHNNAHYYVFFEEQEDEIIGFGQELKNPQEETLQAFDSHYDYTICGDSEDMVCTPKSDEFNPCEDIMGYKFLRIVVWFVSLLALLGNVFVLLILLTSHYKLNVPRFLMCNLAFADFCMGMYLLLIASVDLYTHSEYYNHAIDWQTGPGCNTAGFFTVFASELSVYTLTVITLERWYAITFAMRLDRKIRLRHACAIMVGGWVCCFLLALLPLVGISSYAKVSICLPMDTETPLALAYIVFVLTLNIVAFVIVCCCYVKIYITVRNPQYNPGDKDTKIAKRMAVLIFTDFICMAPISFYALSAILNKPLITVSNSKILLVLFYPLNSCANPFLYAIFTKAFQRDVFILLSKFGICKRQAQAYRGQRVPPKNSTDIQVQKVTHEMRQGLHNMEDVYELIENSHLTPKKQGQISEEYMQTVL
#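 HEK 293 cells stably expressing TSHR and a cAMP-gated CNG channel; parental CNG-only cells as counterscreen. Cells preloaded 60 min with membrane potential dye plus 100 uM RO 20-1724, then compound 30 min; fluorescence read at 590 nm.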
# A488 fluor = compound autofluorescence in A488 spectral region. compound autofluorescence, A488 spectral region, dye equivalency; active compounds read high. max dye equivalency, M. actives 0.1% (n = 59,000). AID 591; active = above 10 nM dye equivalent; inconclusive = 1 to 10 nM; inactive = 1 nM or less; about half of its hits are not listed in these tables;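 also: highest value over a series up to 38 µM; compound alone in buffer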
#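 Spectroscopic profiling in the A488 region: compounds in pH 8.0 Tris (100 mM), 15 min RT, CCD imaging with 480 nm excitation and 540 nm emission; responses normalized against A488 dye standards.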
# Active calls of the source: *; i = inactive; ? = inconclusive; . = not tested or not shown; & = joins results of further samples; [ ] = another dose, or the depositor's remark.
SMILES,A647 fluor,AID923,Resorufin fluor,TSHR ag,A488 fluor
CN(C)[C@H]1C(=O)C(C(=O)NCN2CCCC2)=C(O)[C@]2(O)C(=O)C3=C(O)c4c(O)cccc4[C@@](C)(O)[C@H]3C[C@@H]12,3.3e-08,-1.2%[25.7 µM],i,-2.7%[25.6 µM],i
CCOC(=O)n1c(SCC(=O)N(CC)CC)nc2ccccc21,1e-09,2.4%,i,?,i
Fc1cc(Br)ccc1Nc1nc2ccccc2n2nnnc12,.,2.3%,.,?,.
CCC(CO)NC(=O)c1cccc(S(=O)(=O)N2c3ccccc3CC2C)c1 (stereo not drawn),1e-08,-3.7%,i,-4.1%,i
CCn1nnnc1-c1ccc(OC)c(S(=O)(=O)NCc2ccccc2)c1,3.42e-08,-2.1%,i,5.9%,i
Fc1ccccc1CCNc1nnnn1-c1ccccc1,5.9e-09,-1.8%,i,2.1%,i
O=C(c1cc(-c2ccc(Cl)c(Cl)c2)on1)N1CCN(c2ccccc2)CC1,1e-09,0.7%,i,12.7%,i
CCc1ccc2c(COC(=O)c3n[nH]c4ccccc34)cc(=O)oc2c1,1.91e-08,1.0%,i,13.3%[11.4 µM],i
N#Cc1ccc(CN2CCC3(CC2)CCN(C(=O)c2cccc(F)c2)CC3)cc1,1.8e-09,0.7%,i,-0.3%,i
Cc1ccccc1OCc1nnc(SCC(=O)Nc2ccc3c(c2)OCO3)n1C,3.32e-08,0.4%,i,7.5%,i
COc1cc(C2N(c3cc(C)on3)C(=O)C3CCCN32)cc(OC)c1OC (stereo not drawn),1e-09,-0.3%,i,4.8%,i
Clc1ccc(C2=Nn3c(nnc3-c3cccnc3)SC2)s1,4.7e-09,0.4%,i,26.0%,i
Cc1nc(SCC(=O)Nc2ccnc3ccccc23)n[nH]1,1e-09,-0.8%,i,4.8%,i
O=C(CN1C(=O)C2CC=CCC2C1=O)Nc1nc2ccccc2[nH]1 (stereo not drawn),4.91e-08,1.6%,i,-1.6%,i
COc1ccc(N2C(=O)CC(NCc3cccc(F)c3)C2=O)cc1 (stereo not drawn),.,0.1%,.,5.8%,.
CCCN(CCC)S(=O)(=O)c1ccc(C(=O)O)cc1,1e-09&1e-09,1.2%,i,3.0%,i
CCS(=O)(=O)N1CCCC(C(=O)NC2CCCCC2)C1 (stereo not drawn),8.3e-09,-1.4%,i,4.6%,i
COc1cccc(-c2nccc(NCc3cnc(C)cn3)n2)c1,3.7e-09,3.3%,i,7.0%,i
O=S(=O)(NCc1ccccc1)c1ccc(S(=O)(=O)N(Cc2ccccn2)Cc2ccco2)cc1,2.5e-09,0.1%,i,?,i
O=C(c1ccncc1)N1CCN(C(=O)c2ccncc2)CC1,5.1e-09,0.5%,i,-0.9%,i
COC(=O)NCC1(C)CC(NC(=O)OC)CC(C)(C)C1 (stereo not drawn),1e-09,-0.7%,i,.,i
COc1ccccc1CC1(C)NC(=O)N(CC(=O)N2CC(C)OC(C)C2)C1=O (stereo not drawn),1e-09,3.0%,i,0.1%,i
Cc1ccccc1N1C(=O)[C@@H]2Cc3ccccc3CN2C1=O,2.7e-09,-1.4%,i,9.8%,i
CC(OC(=O)CNC(=O)c1ccc2c(c1)OCO2)C(=O)NCCC1=CCCCC1 (stereo not drawn),5.2e-09,-0.5%,i,-0.9%[11.4 µM],i
CCCCC(=O)Nc1ncc2c(n1)CC(C)(C)CC2=O,.,3.2%,.,1.9%,.
Cc1nnc(SCc2ccccc2C#N)n1-c1ccccc1,4.7e-09,10.4%,i,13.6%,i
CC(=O)Nc1ccc(S(=O)(=O)N(C)CC(=O)NC2=NCCS2)cc1,1e-09,-0.9%,i,-1.5%,i
COc1cc(OC)cc(-c2cc3nc(C)c(CCC(=O)O)c(C)n3n2)c1,.,-1.2%,.,-3.1%,.
CCO/C(C)=N/n1c2nc3ccccc3nc2c2c(=O)n(Cc3ccccc3Cl)c(C)nc21,1e-09,.,i,.,i
CC(C)Cc1ccc(C(C)C(=O)N2CCOCC2)cc1 (stereo not drawn),2.17e-08,0.0%,i,.,i
CC(C(=O)NCC1CCCO1)n1cccc1C(=O)c1ccccc1 (stereo not drawn),5.6e-09,-0.2%,i,1.6%,i
COc1ccc(S(=O)(=O)N2CC(C)N(S(=O)(=O)c3ccc(OC)cc3)CC2C)cc1 (stereo not drawn),.,-3.0%,.,4.5%[11.4 µM],.
COC(=O)Cc1[nH]nc2c1C1(CCSCC1)C(C#N)=C(N)O2,1e-09,0.7%,i,-5.6%,i
O=C(NCc1ccc(Cl)cc1)c1noc2c1CCCCC2,1.03e-08,0.7%,i,11.4%,i
COC(=O)c1ccccc1NC(=O)COC(=O)c1cccnc1,4.5e-09,1.3%,i,2.9%,i
C=CCN(CC=C)CC(O)Cn1c2ccccc2c2ccccc21 (stereo not drawn),5.5e-09,1.1%,i,?,i
CCOC(=O)C1CCCN(Cc2c(Cl)cccc2Cl)C1 (stereo not drawn),7.19e-08,-1.4%,i,19.0%,i
COCCn1c(=O)cnc2cnc(Oc3cccc(Cl)c3)nc21,2.59e-08,2.1%,i,?,i
N#Cc1nc(-c2cccs2)oc1NCc1ccco1,5.39e-08,-1.0%,i,12.7%,i
COc1ccc(-c2noc(CCC(=O)Nc3cc(OC)ccc3OC)n2)cc1,1e-09,0.4%,i,14.0%,i
COC(=O)c1ccc(C(NC(=O)OCc2ccccc2)/C(F)=C/[C@@H](C)C(=O)NCc2ccc(-c3ccccc3)cc2)cc1 (stereo partly drawn),.,0.8%,.,4.3%,.
COC(=O)c1cc(Br)ccc1OC(=O)c1cccnc1,5.6e-09,-3.7%,i,11.2%,i
COc1ccc(Oc2coc3cc(OC(=O)N4CCOCC4)ccc3c2=O)cc1,1e-09,-0.7%,i,6.0%,i
CCOc1ccc(N2C(=O)CC(N3CCN(C4CCc5ccccc5C4)CC3)C2=O)cc1 (stereo not drawn),.,9.5%,.,2.9%,.
CC1CN(C(=O)CSc2nnc(-c3ccc(Cl)cc3)n2C)CC(C)O1 (stereo not drawn),1e-09,-0.6%,i,-1.7%[11.4 µM],i
c1ccc(-c2nn3c(C4CCCCC4)nnc3s2)nc1,2.36e-08,1.2%,i,8.4%,i
CNC(=O)Nc1ccccc1C(=O)NCc1ccccc1,1e-09,-0.1%,i,-0.2%[11.4 µM],i
CCOc1ccc(Cc2nccc3cc(OCC)c(OCC)cc23)cc1OCC,4.41e-08,0.0%,i,?,i
Cc1onc(-c2c(Cl)cccc2Cl)c1C(=O)Nc1ccc2c(c1)OCCO2,.,0.0%,.,21.4%,.
CCCCCC(C)n1[nH]c(=O)c2c(C)cc(C)nc21 (stereo not drawn),.,0.7%,.,8.5%,.
# Additional compounds follow.
SMILES,A647 fluor,AID923,Resorufin fluor,TSHR ag,A488 fluor
O=C(CCCn1c(=O)c2sccc2n(Cc2ccc(F)cc2)c1=O)NCc1ccco1,7.3e-09,0.2%,i,?,i
CC1(C)CNC(=O)C=C(c2ccccc2)C1,1e-09,3.9%,i,12.5%,i
CS(=O)(=O)Nc1ccc2c(c1)nc1n2CCOC1,4.39e-08,1.6%,i,6.3%,i
CC(=O)Nc1ccc(S(=O)(=O)N2CCN(CC(=O)NC3CCCC3)CC2)cc1,1.38e-08,-1.5%,i,-1.1%,i
Cc1cc(C)c2cc(CN(CC3CCCO3)C(=O)NC3CCCCC3)c(=O)[nH]c2c1 (stereo not drawn),6.4e-09,0.5%,i,10.3%,i
O=C(COc1ccc(Br)cc1)N1CCCCCC1,.,0.4%,.,14.6%,.
O=C(Nc1ccc(Cl)cc1)Nc1ccc(N2CCOCC2)cc1,1e-09,-0.3%,i,-0.4%,i
CCOC(=O)C1C(C#N)=C(N)OC(C)=C1c1ccncc1 (stereo not drawn),1e-09,0.1%,i,8.7%,i
O=P(O)(O)c1ccccc1OCCCCCOc1ccccc1P(=O)(O)O,1.58e-08,0.7%,i,1.1%,i
Brc1ccc(C2=Nn3c(nnc3-c3cccnc3)SC2)s1,1.67e-08,0.6%,i,20.8%,i
COc1cc(C2CC(=O)NC3=C2C(=O)CC(C)(C)C3)ccc1O (stereo not drawn),2.36e-08,-1.6%,i,?,i
CCOC(=O)N1CCC(NC(=O)CN2C(=O)CCSc3ccccc32)CC1,.,4.2%,.,0.8%,.
Cn1c(=O)c2ccccc2n(Cc2ccccc2F)c1=O,2.39e-08,0.8%,i,.,i
COc1cccc(-c2cncnc2NCc2cnc(C)cn2)c1,1.94e-08,1.5%,i,8.4%,i
C=CCn1c(SCC(=O)Nc2ccccc2C)nnc1-c1ccncc1,1.24e-08,0.9%,i,-4.7%,i
CCN1CCN(c2ncc(C(=O)Nc3cc(Cl)c(OC)cc3OC)c3ccccc23)CC1,1.73e-08,0.9%,i,16.1%,i
COC(=O)CSc1nc2c(c(-c3ccco3)c1C#N)CCCC2,3.13e-08,4.1%,i,-1.3%,i
COc1ccc(C(=O)CC(=O)c2c(O)cc(OC)cc2OC)cc1,.,1.4%[11.5 µM],.,15.0%[11.4 µM],.
CC1(c2ccccc2)NC(=O)N(CCN2C(=O)c3ccccc3C2=O)C1=O (stereo not drawn),6.5e-09,-3.0%,i,2.8%,i
Cc1ccc2cccc(SCC(=O)N3CCOCC3)c2n1,.,-1.0%,.,?,.

# Single entries from the entries so far:
# `COC(=O)CSc1nc2c(c(-c3ccco3)c1C#N)CCCC2` in TSHR ag → -1.3%
# `COc1cc(C2CC(=O)NC3=C2C(=O)CC(C)(C)C3)ccc1O` (stereo not drawn) in A647 fluor → 2.36e-08

# (listing goes on)
SMILES,A647 fluor,AID923,Resorufin fluor,TSHR ag,A488 fluor
Cn1c(Cc2ccccc2)nnc1SCC(=O)Nc1ccccc1N1CCOCC1,1e-09,0.4%,i,5.1%,i
CCOc1ccccc1OCC(=O)Nc1nnc(COC)s1,2.8e-09,-1.4%,i,-3.6%,i
Cc1cc(=O)n2nc(N3CCC(C(=O)NCc4cccnc4)CC3)sc2n1,3.03e-08,0.4%,i,-2.2%,i
O=C(OCC(=O)N1CCOCC1)c1ccccc1SCC(=O)N1CCCC1,3.9e-09,0.6%,i,-0.8%,i
CC(=O)c1c(N2CCCCC2)nc(=O)n(-c2ccccc2)c1C,1e-09,2.7%,i,-7.7%[11.4 µM],i
CCOCCCNC(=O)c1ccccc1SCC,2.3e-09,-1.0%,i,5.1%,i
COc1ccc2c(c1)-c1nc(NC(=O)c3ccco3)sc1CC2,1.83e-08,2.5%,i,0.3%,i
O=C(C(c1ccccc1)N1CCOCC1)N1CCOCC1 (stereo not drawn),7.99e-08,.,i,.,i
CCCCNC(=O)CSc1nc2ccccc2c(=O)n1C1CCCC1,1e-09,-0.2%,i,?,i
CN(C)c1ccc(-c2nnc(-c3ccc(S(=O)(=O)C(F)F)cc3)o2)cc1,2.48e-08,20.3%,i,11.3%,i
OCCNc1ncnc2c1c(-c1ccccc1)c(-c1ccccc1)n2Cc1ccco1,4.01e-08,.,i,.,i
Cc1ccccc1-n1c(C)nnc1SCC(=O)NCC1CCCO1 (stereo not drawn),2.82e-08,-0.6%,i,0.8%,i

# Sorted by heavy-atom count (high to low): part of the list above
SMILES,A647 fluor,AID923,Resorufin fluor,TSHR ag,A488 fluor
CCCCNC(=O)CSc1nc2ccccc2c(=O)n1C1CCCC1,1e-09,-0.2%,i,?,i
CC(=O)c1c(N2CCCCC2)nc(=O)n(-c2ccccc2)c1C,1e-09,2.7%,i,-7.7%[11.4 µM],i
CCOc1ccccc1OCC(=O)Nc1nnc(COC)s1,2.8e-09,-1.4%,i,-3.6%,i

# Source: PubChem (National Center for Advancing Translational Sciences (NCATS))

# Only part of the results is shown (hit frequency here may not be typical).
